# Compound activity (PubChem BioAssay)
# eIF4H FP inh: inhibitors of RNA binding by human eIF4H. eIF4H fluorescence polarization binding assay. hit rate 0.94% among 290,000. inhibition, % at 35 µM. Q15056;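 active = 50% or more with normal probe brightness, or confirmed in later tests; about a fifth of its hits are not listed in these tables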;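 note: calls also rest on retests at 20 µM and on dose response follow-up; 0% = protein and probe with vehicle and 100% = probe without protein; strong numbers were not always called active; many hits fall short of the cut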
# CSC inhib: cancer stem cell inhibition | cancer stem cell-like cells viability, luminescence | inhibition, % at 7.5 µM | hit rate 1.1% among 300,000 | AID 2717;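 active = mean at 75% or more and at least half the replicates too; tested in HMLE shEcad cells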;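 note: 0% = median of negative and 100% = median of positive control wells; the first replicate is given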
# Yeast UUG start: alters start codon recognition fidelity in yeast | hit rate 0.13% among 350,000 | AID 602363 | S. cerevisiae UUG-firefly luciferase reporter, luminescence/redox ratio | activity score, % at 18.7 µM;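 active = replicate mean at a twofold rise or more, about +100% in these data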;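 note: firefly luciferase made from a UUG start codon reports start codon fidelity; reporter light over untreated wells divided by growth signal over untreated wells; some hits fall short of that in this replicate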
# PABP polyA inh: PABP-poly(A) binding inhibition. P11940. PABP-poly(A) RNA binding, fluorescence polarization. inhibition, % at 35 µM. hit rate 1% among 290,000;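 active = 50% or more with normal probe brightness, or confirmed in later tests; about a fifth of its hits are not listed in these tables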;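 note: calls also rest on retests at 20 µM and on dose response follow-up; controls were probe without protein and protein plus probe with vehicle; some compounds called inactive have numbers as strong as hits; many hits fall short of the cut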
# Target sequence (P11940 whole entry, looked up): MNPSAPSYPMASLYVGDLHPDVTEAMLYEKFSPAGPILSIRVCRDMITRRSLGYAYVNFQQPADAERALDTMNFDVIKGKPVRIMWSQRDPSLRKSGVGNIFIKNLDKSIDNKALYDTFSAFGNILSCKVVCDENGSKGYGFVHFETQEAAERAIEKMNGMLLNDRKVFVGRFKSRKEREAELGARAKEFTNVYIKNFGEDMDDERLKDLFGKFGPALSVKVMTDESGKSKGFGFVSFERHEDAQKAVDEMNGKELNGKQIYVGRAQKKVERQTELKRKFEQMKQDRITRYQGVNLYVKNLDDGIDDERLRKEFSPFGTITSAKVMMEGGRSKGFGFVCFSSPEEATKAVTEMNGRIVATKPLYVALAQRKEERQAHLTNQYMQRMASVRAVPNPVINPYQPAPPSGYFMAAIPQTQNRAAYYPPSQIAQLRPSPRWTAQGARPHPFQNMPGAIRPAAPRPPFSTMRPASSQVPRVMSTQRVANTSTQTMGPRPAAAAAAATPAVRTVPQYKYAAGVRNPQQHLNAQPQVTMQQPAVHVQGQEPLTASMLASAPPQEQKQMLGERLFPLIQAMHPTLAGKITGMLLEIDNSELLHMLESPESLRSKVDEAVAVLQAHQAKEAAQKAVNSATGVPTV
# Env fusion inh: blocks HIV Env-driven cell-cell fusion. inhibition, % at 12.3 µM. AID 651610. HeLa-JRFL Env/CEM21 cell fusion, luciferase. hit rate 1.1% among 360,000;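 active = mean replicate inhibition score of at least 50 and every replicate individually at or above 50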;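 note: 0% = plate neutral controls and 100% = maraviroc near 300 nM; one replicate is shown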
# Rce1 inh: inhibitors of yeast Ras-converting enzyme. Q03530. yeast membranes, quenched prenylated peptide cleavage fluorescence. calls only. hit rate 0.27% among 290,000;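 active = fall in fluorescence gain of 50% or more versus controls, with final raw signal at or below 3038400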;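 note: plate controls were neutral control wells for no effect and wells lacking membranes for full effect; tested at 10 µM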
# Target sequence (Q03530 whole entry, looked up): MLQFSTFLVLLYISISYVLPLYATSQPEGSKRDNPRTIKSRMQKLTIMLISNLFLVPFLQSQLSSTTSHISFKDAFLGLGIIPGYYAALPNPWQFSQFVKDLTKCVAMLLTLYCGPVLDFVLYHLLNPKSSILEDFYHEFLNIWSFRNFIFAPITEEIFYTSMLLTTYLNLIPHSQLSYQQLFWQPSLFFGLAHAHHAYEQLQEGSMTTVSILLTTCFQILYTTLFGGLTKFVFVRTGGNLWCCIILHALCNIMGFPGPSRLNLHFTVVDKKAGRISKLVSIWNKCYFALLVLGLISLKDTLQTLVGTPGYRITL
# MT1-MMP act inh: MT1-MMP (human) activation inhibition; GFP/RFP ratio change, % at 20 µM; P50281; hit rate 0.061% among 360,000; HT1080 RFP-PRO-GFP cells, GFP/RFP ratio fluorescence, overnight; percent of plate control window, DMSO zero;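 active = GFP/RFP ratio change of at least 30% with cell ATP level not reduced by more than half and red fluorescence within 50% of control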; note: strong numbers were not always called active
#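 Material – HT1080 RFP-PRO-GFP cells · Control set – DMSO wells and RFP-L50D-GFP cells · Incubation – overnight cell settling, then overnight compound exposure, 37 °C, 5% CO2 · Compound dosing – single-point 20 µM compound, 1% DMSO · Read-out – GFP/RFP fluorescence ratio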
# MT1-MMP act inh RFP: recorded beside MT1-MMP act inh, whose call it bears; RFP signal change, %; measured here: RFP expression control read;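 0 = vehicle wells; hits needed this value within 50% of zero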
# The depositor's hits bear a star; i = inactive; · = no result given; + = active, no number; & = joins results of further samples; ! = not active in a repeat.
canonical_smiles	eIF4H FP inh	CSC inhib	Yeast UUG start	PABP polyA inh	Env fusion inh	Rce1 inh	MT1-MMP act inh	MT1-MMP act inh RFP
O=S(=O)(c1ccc(NC(=S)Nc2ccccc2)cc1)N1CCOCC1	-7	-1	-25	3	10	i	-13	-2
Clc1ccc(C2Nc3cccc4cccc(c34)N2)c(Cl)c1	·	·	-16	·	30	·	11	5
O=C(CCSc1nc2ccccc2s1)N/N=C/c1c(O)ccc2ccccc12	6	80*	-18	-15	20	i	-2	-3
CCOc1ccc(-n2ccnc(SCC(=O)NC3CCCC3)c2=O)cc1	·	-1	-8	·	·	+	-1	-4
CC(C)CN(C(=O)CN1CCN(S(=O)(=O)c2ccccc2)CC1)c1c(N)n(CC(C)C)c(=O)[nH]c1=O	-1	-2	3	-2	32	i	-2	2
Cc1ccc(S(=O)(=O)N2CCC(=O)N(C(COCc3ccccc3)Cc3ccccc3)CC2)cc1 (stereo not given)	-6	1	-23	-2	7	i	-6	-11
COC(=O)c1sc(NC(=O)c2cc3c(s2)CCCC3)nc1C	-3	14	·	0	-114	i	-10	-5
Cc1cc(C(=O)NN=C2CCCCC2)c2ccccc2n1	-2	1	·	10	-33	·	-5	7
O=C(NCc1ccccc1)/C(=C\c1cccc([N+](=O)[O-])c1)NC(=O)c1ccco1	·	·	-13	·	9	·	4	10
CCCCn1c(SCC(=O)Nc2ccccc2C(F)(F)F)nc2ccsc2c1=O	-1	7	-14	-5	8	i	-1	-7
CC(C)(C)c1ccc(S(=O)(=O)Nc2ccc(C(=O)N3CCCC3)cc2)cc1	6	-3	1	1	-12	i	3	-9
CN(Cc1ccc(F)cc1)C(=O)c1cccc(OCc2ccccc2)c1	3	·	-10	-11	11	i	-2	-2
COc1ccc(/C(C)=N/Nc2nc(C)cc(-c3ccccc3)n2)cc1	·	5	-20	·	3	i	-1	-18
COc1ccc2oc(=O)c(-c3csc(Nc4ccc(O)cc4)n3)cc2c1	8	3	·	3	-2	i	-15	-13
CCn1cnnc1SCC(=O)NCC1COc2ccccc2O1 (stereo not given)	·	9	-5	·	·	·	-4	-1
CCOc1cc(/C=C2\SC(=S)N(Nc3ccccc3)C2=O)ccc1O	-8	28	-13	-17	·	i	6	85
O=C1CCC(=O)N1CN(C(=O)c1ccco1)c1ccc(Cl)c(Cl)c1	-2	1	-10	10	-25	i	7	5
O=C(Nc1cccnc1)c1ccc(S(=O)(=O)c2ccccc2)cc1	2	1	·	1	16	i	3	-3
O=C(COC(=O)/C=C/c1cccc(Cl)c1)Nc1ccc(N2CCOCC2)cc1	·	-12	·	·	-10	·	0	0
COc1ccc(-c2csc(C(O)c3ccc(OC)cc3)n2)cc1 (stereo not given)	·	·	-2	·	-6	·	-1	-16

# Shown as a hit in Rce1 inh (from the list above):
structure | Yeast UUG start | Env fusion inh | Rce1 inh | MT1-MMP act inh | MT1-MMP act inh RFP
CCOc1ccc(-n2ccnc(SCC(=O)NC3CCCC3)c2=O)cc1 | -8 | · | + | -1 | -4

# 2 records picked at random from those above, as already listed:
canonical_smiles	eIF4H FP inh	CSC inhib	Yeast UUG start	PABP polyA inh	Env fusion inh	Rce1 inh	MT1-MMP act inh	MT1-MMP act inh RFP
Cc1ccc(S(=O)(=O)N2CCC(=O)N(C(COCc3ccccc3)Cc3ccccc3)CC2)cc1 (stereo not given)	-6	1	-23	-2	7	i	-6	-11
COC(=O)c1sc(NC(=O)c2cc3c(s2)CCCC3)nc1C	-3	14	·	0	-114	i	-10	-5

# Additional results follow:
canonical_smiles	eIF4H FP inh	CSC inhib	Yeast UUG start	PABP polyA inh	Env fusion inh	Rce1 inh	MT1-MMP act inh	MT1-MMP act inh RFP
COc1ccc(NC(=O)CSc2nnc(-c3cccs3)n2N)c(OC)c1	·	-6	4	·	-8	i	-4	0
Cc1ccc(C(=O)Nc2sc(C(=O)N(C)C)c(C)c2C#N)cc1	-1	-2	1	-5	11	i	1	4
N#CCCn1ncn(-c2ccccc2)c1=S	-7	10	-25	-2	·	i	2	5
COc1ccc(-c2cc(C(F)(F)F)nc(SCCC(=O)Nc3cc(C)on3)n2)cc1	-4	-34	-10	-4	·	i	-2	-4
Cn1cc(/C=N/NC(=O)c2cccc([N+](=O)[O-])c2)c2ccccc21	2	-11	-19	26	-1	i	19	7
O=C(c1c(F)cccc1F)N1CCCC(c2nc(-c3ccc(F)cc3)no2)C1 (stereo not given)	-6	3	10	1	10	i	4	-10
COc1ccccc1C(CNC(=O)CN(C)S(=O)(=O)c1ccc(C)cc1)N1CCCC1 (stereo not given)	·	11	0	·	·	·	2	9
CSc1ncccc1C(=O)OCC(=O)C(C)(C)C	-1	14	·	7	3	i	-1	1
Cc1cc(C)c(C)c(S(=O)(=O)NCCN2CCOCC2)c1C	0	-16	-11	2	12	i	2	1
Cc1cc(C)nc(SCC(=O)Nc2ncc(Cc3cccc(Cl)c3Cl)s2)n1	-9	-10	-3	-16	·	i	-8	-22

# Of the compounds above, these contain a tert-butyl group.
canonical_smiles	eIF4H FP inh	CSC inhib	Yeast UUG start	PABP polyA inh	Env fusion inh	Rce1 inh	MT1-MMP act inh	MT1-MMP act inh RFP
CC(C)(C)c1ccc(S(=O)(=O)Nc2ccc(C(=O)N3CCCC3)cc2)cc1	6	-3	1	1	-12	i	3	-9
CSc1ncccc1C(=O)OCC(=O)C(C)(C)C	-1	14	·	7	3	i	-1	1

# 3 compounds out of the list, ordered by heavy-atom count, low to high.
canonical_smiles	eIF4H FP inh	CSC inhib	Yeast UUG start	PABP polyA inh	Env fusion inh	Rce1 inh	MT1-MMP act inh	MT1-MMP act inh RFP
COc1ccc(NC(=O)CSc2nnc(-c3cccs3)n2N)c(OC)c1	·	-6	4	·	-8	i	-4	0
O=C(c1c(F)cccc1F)N1CCCC(c2nc(-c3ccc(F)cc3)no2)C1 (stereo not given)	-6	3	10	1	10	i	4	-10
COc1ccc(-c2cc(C(F)(F)F)nc(SCCC(=O)Nc3cc(C)on3)n2)cc1	-4	-34	-10	-4	·	i	-2	-4

# New compounds follow
canonical_smiles	eIF4H FP inh	CSC inhib	Yeast UUG start	PABP polyA inh	Env fusion inh	Rce1 inh	MT1-MMP act inh	MT1-MMP act inh RFP
CCCCn1c(N)c(N(CC)C(=O)c2cccc(S(=O)(=O)N3CCN(C)CC3)c2)c(=O)[nH]c1=O	·	-6	·	·	-1	i	0	-1
Oc1ccc(-c2c(C3=CCCCC3)sc3ccccc23)cc1	14	21	-21	-1	-14	i	0	3
Cn1ccc(C(=O)OCC(=O)Nc2cccc3ccccc23)n1	-2	-8	·	-9	16	i	-1	4
O=C(NNC(=O)C1CC1c1ccccc1)c1cccc([N+](=O)[O-])c1 (stereo not given)	-9	-3	2	-15	14	i	5	-1
COc1ccccc1CNC(=O)Nc1nc(C(N)Cc2ccc(Cl)cc2)cs1 (stereo not given)	·	·	-9	·	8	·	-3	-8
COC(=O)[C@H]1C[C@@]2(O)CN(S(=O)(=O)c3ccc(C)cc3)C[C@@]2(OC(=O)NC2CC2)C[C@H]1C(=O)OC	·	·	-1	·	-117	·	0	3
COc1ccc(CCn2c(C3CCCCC3)nc3c(c(=O)c4ccccc4n3C)c2=O)cc1OC	-11	-4	9	4	-24	i	-5	-12
Cc1cc(C)cc(N(CCC#N)C(=O)COC(=O)C2CCN(S(=O)(=O)c3ccc(C)c(C)c3)CC2)c1	·	·	-8	·	7	i	-1	2
CC1(C(=O)Nc2ccc3c(c2)OCO3)CCN1C(=O)C1(c2ccc(Cl)cc2)CC1 (stereo not given)	·	·	-13	·	-6	·	4	-4
Cc1ccc(Nc2nnc(SC(C)C(=O)NCC3CCCO3)s2)cc1C (stereo not given)	·	-7	-5	·	-3	i	-1	-3
COc1ccccc1OCC(O)Cn1nc(C)cc1C (stereo not given)	·	-13	-8	·	10	i	-3	2
Cc1cccc(OCc2nnc(SCC(=O)Nc3cccc(C(=O)N4CCOCC4)c3)o2)c1C	-1	-9	2	-2	9	i	3	7
Nc1cccc(Oc2ccc3c(c2)C(=O)N(CCO)C3=O)c1	·	·	-12	·	9	·	1	1
CCc1noc(C)c1C(=O)Nc1cccc(S(=O)(=O)N(C)c2ccccc2)c1	·	-4	0	·	12	i	-5	-3
CC(c1ccccc1)N1C(=O)c2cccnc2C1=O (stereo not given)	0	-18	6	-6	4	i	3	6
CC(C)Oc1ccc(Cn2c(=O)sc3ccccc32)cc1	-1	-1	-7	2	·	i	0	3
C=CCOc1ccc(/C=C2/C(=O)ON=C2C)cc1OC	1	·	-19	-6	-65	i	2	-1
COc1ccc(NC(=O)c2cc(-c3cc(Cl)ccc3C)n[nH]2)cn1	·	·	-20	·	3	·	-2	-17
CN(c1ccccc1)S(=O)(=O)c1ccc2c(c1)oc(=O)n2C	-9	5	-23	-2	11	i	-3	-4
COc1ccc(C2NC(=O)c3ccccc3O2)cc1OC (stereo not given)	-3	-23	13	-10	·	i	-1	1
CCOC(=O)CN1CC23C=CC(O2)C(C(=O)NCc2ccc(F)cc2)C3C1=O (stereo not given)	-12	-8	-1	-4	-17	i	0	1
O=C(CSc1ccc(-c2ccccn2)nn1)c1ccc(F)cc1	4	-3	-23	4	-4	i	1	2
CCOc1cc2[nH]c(=O)n(CCCCC(=O)N3CCCCCC3)c(=O)c2cc1OCC	-7	-26	-2	2	-29	i	-5	-2
CCCCC(=O)Nc1cc(N(C)C)nc2ccccc12	-13	-4	-12	-5	·	i	3	-1
COc1cc(/C=C(/C#N)C(=O)NCCc2c[nH]c3ccccc23)ccc1OCc1ccccc1F	-13	47	·	6	-31	i	2	3
O=C(CNC1=NCCC1)c1ccc(Cl)cc1	-4	-2	·	7	-5	i	3	8
COc1ccc(C(=O)Nc2ccc(O)c3ccccc23)cc1	·	20	6	·	6	i	-3	0
Oc1ccc(CNc2ccccc2F)c2cccnc12	11	·	-8&-23	9	114*!	i	-4&-20	-25&-21
O=C(c1ccco1)N1CCN(CCCCOc2ccc(F)cc2)CC1	-4	-18	2	-7	22	i	2	0
COc1ccc(NC(=O)CN(C)C(=O)CSCc2c(C)noc2C)cc1	·	-7	-15	·	·	i	0	-2
CC(C)(C)OC(=O)N1CCC(CC2CC(c3ccncc3)=NO2)(C(=O)O)CC1 (stereo not given)	·	-10	-15	·	-14	i	2	6
Cc1ccc(C)c(C(=O)OCC(=O)Nc2ccc(N3CCOCC3)cc2)c1	6	-11	·	-6	-7	i	-1	3
